Assay outcomes: PubChem, several laboratories
UCH37 inh: human UCH37 deubiquitinating enzyme inhibition | AID 588478 | Q9Y5K5 | 330,000 tested, 0.33% active | inhibition, % (concentration not given with the values) | purified proteasome/UCH37, Ub-AMC cleavage fluorescence;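 active = mean of two replicates above 20%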;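 also: 0% = compound-free wells with enzyme and 100% = wells lacking proteasome; stock transfer was 100 nL into about 20 µL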
Target sequence (Q9Y5K5 whole entry, looked up): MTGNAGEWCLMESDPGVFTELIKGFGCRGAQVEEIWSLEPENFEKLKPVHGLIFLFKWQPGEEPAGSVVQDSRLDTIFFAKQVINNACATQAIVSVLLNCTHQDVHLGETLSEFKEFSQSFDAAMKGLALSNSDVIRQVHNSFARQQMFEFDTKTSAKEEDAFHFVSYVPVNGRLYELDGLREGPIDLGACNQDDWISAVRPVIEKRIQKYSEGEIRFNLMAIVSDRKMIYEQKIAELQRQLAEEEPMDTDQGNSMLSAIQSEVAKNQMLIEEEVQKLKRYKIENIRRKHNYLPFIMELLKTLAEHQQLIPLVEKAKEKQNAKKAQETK
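Material: human UCH37 enzyme supplied as purified proteasome complex. Measure: % inhibition of Ub-AMC cleavage fluorescence. Medium: pH 7.4 Tris-HCl (50 mM) with ovalbumin, ATP-MgCl2, DTT. Times: 30 min preincubation with enzyme, 25 min cleavage at room temperature. Detection: AMC fluorescence intensity at 355/460 nm.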
Vif TR-FRET: HIV-1 Vif–A3G interaction blockers – biochemical, TR-FRET, GST-Vif 1-94, biotin-A3G peptide, dose response retest, primary screen (AID 1117319); TR-FRET GST-Vif / biotin-A3G peptide binding; higher % means a stronger effect; test concentration not given here; strong numbers were not always called active; one-dose inhibition, %; IC50 in µM for titrated hits; 260,000 tested, 0.57% active;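 active = above the screen mean plus three standard deviations and confirmed in dose response; inconclusive = results disagree or hit not tested in dose response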;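 also: Vif residues 1-94 fused to GST binding biotinylated APOBEC3G peptide 110-148; 0% = full assay without inhibitor and 100% = GST in place of GST-Vif; retest series ran down from 100 µM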
HNF4A DNA FP: change in binding of human HNF4 alpha to DNA | activity change, % at 10 µM | P41235 | AID 1224865 | 360,000 tested, 0.3% active | HNF4a-FITC DNA binding, fluorescence polarization, 1 h; in the data active = activity change above about 30%, passing the limit was not always enough;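 also: controls were the assay level and a saturating level of protein; the project sought stronger binding though the title names inhibitors; some compounds called inactive have numbers as strong as hits; positive values seem to mean higher polarization but the record does not say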
RanGTP-Impb inh: disruptors of Ran-importin-beta complex formation – biochemical, FRET, CFP-Ran, YFP-importin-beta, homogeneous, primary screen; 300,000 tested, 1.1% active; inhibition, % (test concentration not listed); cell-free CFP-Ran/YFP-importin-beta FRET ratio;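 active = most replicates above 15%; inconclusive = exactly half above 15%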;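 also: 0% = DMSO wells and 100% = Ran loaded with GDP instead of GTP; wells of about 40 µL received 100 nL stock; the first replicate is given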
MLL AF4-AF9 inh: inhibitors of human MLL-AF4/AF9 interaction; inhibition, % at 10 µM; 350,000 tested, 0.47% active; AlphaScreen, biotin-AF4 peptide binding to FLAG-AF9; P42568;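 active = every replicate reaching a set inhibition limit, whatever the replicate mean, cut at about 25% in these data; inconclusive = mean inhibition reaches that limit but some replicates miss it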;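 also: 0% = plate neutral control median and 100% = total signal loss; the record names both 10 and 1 µM as test concentration; the first replicate is given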
Target sequence (P42568 whole entry, looked up): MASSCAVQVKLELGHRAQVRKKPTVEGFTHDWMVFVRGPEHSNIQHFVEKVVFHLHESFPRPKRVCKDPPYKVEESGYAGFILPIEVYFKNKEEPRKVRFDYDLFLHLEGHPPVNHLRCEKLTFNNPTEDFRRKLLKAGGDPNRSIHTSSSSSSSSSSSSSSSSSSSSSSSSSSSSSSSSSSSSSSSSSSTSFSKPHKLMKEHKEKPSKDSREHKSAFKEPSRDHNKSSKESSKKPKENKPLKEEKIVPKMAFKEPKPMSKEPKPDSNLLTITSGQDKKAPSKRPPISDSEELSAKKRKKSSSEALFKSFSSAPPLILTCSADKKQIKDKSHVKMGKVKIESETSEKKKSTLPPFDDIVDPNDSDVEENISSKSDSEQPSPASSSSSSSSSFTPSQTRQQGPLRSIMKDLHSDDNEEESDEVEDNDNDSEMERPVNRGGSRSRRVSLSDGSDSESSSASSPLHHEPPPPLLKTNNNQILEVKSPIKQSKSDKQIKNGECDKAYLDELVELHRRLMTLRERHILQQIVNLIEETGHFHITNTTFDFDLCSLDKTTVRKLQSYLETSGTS
FGF22 binding: shifts melting point of recombinant human FGF22; recombinant FGF22 thermal shift, SYPRO orange fluorescence; percent of sucrose octasulfate shift, DMSO zero; calls only at 9.99 µM; 340,000 tested, 1.5% active;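 active = melting point raised past a set limit in the mean and every replicate; inconclusive = no clear call; three in four hits are not shown here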
Target sequence (Q9HCT0 whole entry, looked up): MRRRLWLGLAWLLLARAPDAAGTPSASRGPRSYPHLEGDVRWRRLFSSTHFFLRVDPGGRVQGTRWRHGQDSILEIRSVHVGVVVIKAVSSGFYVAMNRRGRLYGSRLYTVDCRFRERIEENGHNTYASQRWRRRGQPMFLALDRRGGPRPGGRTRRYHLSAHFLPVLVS
Ecoli growth: E. coli growth inhibition; Escherichia coli growth, OD600, 23 h; hits give low values; OD600 absorbance (concentration not given with the values); 330,000 tested, 0.21% active;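 active = OD600 absorbance below the run mean of sample wells minus 3.6 SD, in any replicate, cut at about 0.56 in these data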;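 also: stock transfer was 300 nL into about 60 µL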
An asterisk follows results filed as active; i = inactive; u = inconclusive; x = not tested or not shown; & = joins results of further samples. A portion of the library. The share of hits here may be higher or lower than overall.

mol	MLL AF4-AF9 inh	FGF22 binding	HNF4A DNA FP	UCH37 inh	Ecoli growth	Vif TR-FRET	RanGTP-Impb inh
CCc1cccc(CC)c1NC(=S)/C(=C(\[O-])c1ccc(Cl)s1)[n+]1ccccc1	5.8	i	1.6	5.9	0.63	-5%	4.5
CN(C)c1ccc(NC(=O)c2ccc([N+](=O)[O-])cc2Cl)cc1	0.3	i	-3.1	0.6	0.69	10%	4.4
Cc1ccccc1OCCNc1ccc(C(F)(F)F)cc1[N+](=O)[O-]	x	x	-0.1	4.2	0.69	2%	3.5
COc1cc2c(cc1OC)/C(=C/C(=O)c1ccccc1F)NCC2	8.9	i	-1.3	3.2	0.67	-13%	4.7
CCOC(=O)N/N=C/c1c[nH]c2ccccc12	-2.0	i	4.1	x	x	x	3.2
COC(=O)c1cnc(NNS(=O)(=O)c2ccc(Cl)cc2)nc1C(F)(F)F	2.7	i	2.1	2.0	0.72	-4%	6.9
CC(NC(=O)c1nn(C)c2c1CS(=O)(=O)c1ccccc1-2)c1ccccc1 (stereo unspecified)	-1.8	i	2.6	5.8	0.68	x	-0.2
Cc1cc(Oc2ccc([N+](=O)[O-])cc2)nc(N2CCOCC2)n1	x	i	14	4.6	0.66	u	-4.0
O=C(NCCNC(=O)c1cnccn1)c1ccc(Cl)cc1	0.6	i	1.7	x	x	x	1.2
O=C(CSCc1ccc([N+](=O)[O-])cc1)NN=C1CCCCCC1	-20	i	2.2	5.7	0.69	-5%	-4.0
CC(C)c1ccc(CN2CCC(C(=O)NCc3cccnc3)CC2)cc1	x	x	-4.7	2.7	0.68	u	9.0
Cc1ccc(N2C(=O)c3ccc(C(=O)N4CCOCC4)cc3C2=O)cc1C	x	x	1.3	0.4	0.68	-4%	-1.6
O=C(NCCCN1CCOCC1)c1cc2cc(Br)ccc2oc1=O	x	x	-11	2.4	0.67	23%	1.3
CC(C)NC(=O)c1ccccc1NC(=O)Cc1ccc([N+](=O)[O-])cc1	-0.1	i	4.3	4.6	0.72	-7%	2.2
CC(OC(=O)CCC(=O)c1ccc(Cl)s1)C(=O)NC1(C#N)CCCCC1 (stereo unspecified)	1.8	i	0.9	2.1	0.69	12%	x
O=C(C(=O)N1CCCC1CO)N1CCCC1CO (stereo unspecified)	-2.4	i	1.6	1.3	0.69	x	-0.6
CN(C)CCOc1ccc(-c2c(-c3ccsc3)sc3ccccc23)cc1	14	i	0.2	x	x	x	x
Cc1cccc(N=Cc2[nH]c3ccc(Br)c(Cl)c3c2O)c1	x	x	54	9.2	0.67	-1%	x
O=C(COc1ccc(F)cc1)N1CCC(Cc2ccccc2)CC1	x	x	3.0	4.7	0.7	x	-0.1
COC(=O)c1cc(COc2ccc3oc(C)c(C(=O)OC(C)C)c3c2)c(C)o1	x	x	-1.1	-0.6	0.78	0%	-0.3
O=C(NCCN1CCc2ccccc2C1)Nc1ccc(F)cc1	-3.3	i	-2.2	1.4	0.72	12%	-2.4
COc1cc(CNc2cc(C)ccc2C)cc(OC)c1OC	0.6	i	0.3	0.3	0.67	u	5.0
Cc1ccc(NC(=O)CCNS(=O)(=O)c2ccc3c(c2)c(=O)n(C)c(=O)n3C)cc1C	-0.2	i	0.1	5.3	0.68	28%	-0.2
O=C(O)c1ccccc1C1Nc2ccccc2C(=O)N1CCCN1CCOCC1 (stereo unspecified)	0.4	i	0.2	-42	0.64	x	3.6
CCN(CC(=O)NC(C)(C)C)C(=O)c1cccc(S(=O)(=O)N2CC3(C)CC2CC(C)(C)C3)c1 (stereo unspecified)	-6.4	i	-0.9	x	x	-6%	x
COc1cc(-c2nc(C(=O)NCC3CCCO3)cc3c2[nH]c2ccccc23)cc(OC)c1OC (stereo unspecified)	-13	i	4.3	-50	0.8	x	u
CCN(CC)c1ccc(NC(=O)Cn2c(C(C)NC(=O)c3ccccc3)nc3ccccc32)cc1 (stereo unspecified)	4.4	i	1.3	6.1	0.66	-3%	-2.0
O=C1CN(C(=O)c2cccc(F)c2)C(c2ccc(F)cc2)c2cc(F)ccc2N1 (stereo unspecified)	1.7	i	2.4	-1.0	0.69	-9%	-2.7
O=C(NCCc1ccccn1)c1cc(-c2ccc(Cl)c(Cl)c2Cl)nc2ccccc12	x	x	2.7	2.9	0.69	x	1.5
CCN1CCN(c2ccc(S(=O)(=O)N3CCOCC3)cc2N)CC1	-0.9	i	0.8	1.2	0.69	9%	x
CCCCN(CCCNC(=O)c1c(C)cc(=O)oc1C)c1ccccc1	x	x	-0.5	12	0.69	10%	2.8
O=C(COC(=O)c1ccccc1)NCC1COc2ccccc2O1 (stereo unspecified)	0.1	i	4.9	x	x	-1%	x
COc1ccc(C(c2sc3nc(C)nn3c2O)N2CCC(C(N)=O)CC2)cc1OC (stereo unspecified)	0.0	i	-1.2	3.0	0.76	-3%	0.3
CCOc1ccc(CCNC(=O)CCNC(=O)c2ccco2)cc1OCC	0.3	i	1.4	1.5	0.68	x	0.0
O=C(Cn1cnc2c(nnn2-c2ccc(F)cc2)c1=O)NCc1ccco1	3.4	i	-4.8	3.2	0.7	6%	-1.8
COc1cc(NC(=O)c2cc3c(C)nc4ccccc4c3o2)cc(OC)c1OC	-17	i	5.6	6.6	0.74	-6%	1.9
CCCCCC(=O)N1C[C@@H](O)[C@H](n2cc(-c3ccc(F)cc3)nn2)C[C@@H]1c1ccc(OC)cc1	-1.3	i	0.8	x	x	x	x
Cc1cc(=O)n2c(nc3ccccc32)s1	-7.4	x	-0.4	x	x	-3%	x
CCCC(=O)Nc1ccc(C#Cc2ccccc2)cc1	x	x	6.9	1.5	0.73	2%	-5.6
C[C@@H]1CN([C@@H](C)CO)S(=O)(=O)c2ccc(Br)cc2O[C@@H]1CN(C)S(=O)(=O)c1cn(C)cn1	-1.6&-2.8	i	-3.6	x	x	-1%	x
Cc1ccc(C)c2sc(N)nc12	-1.1	x	-1.2	1.9	0.61	10%	4.0
COc1ccccc1C(=O)NCCCNC(=O)c1ccccn1	1.3	i	3.9	1.7	0.69	x	4.6
COc1ccc(/C=C(\C#N)C(=O)OCC(=O)NC(C)c2ccccc2)cc1 (stereo unspecified)	0.5	i	-1.4	-25	0.72	7%	-0.3
CC(=O)c1ccc(NC(=S)NCCc2cccc(Cl)c2)cc1	2.6	i	1.8	0.0	0.61	-7%	-5.2
CC1CCC(NC(=O)c2cc(C3CC3)nn2-c2ccccc2)CC1 (stereo unspecified)	1.3	i	-1.6	4.8	0.7	x	x
O=[N+]([O-])c1ccc(/C=N/NC(=S)Nc2ccc(Cl)cc2Cl)s1	-1.6	i	3.3	x	x	u	-1.3
COc1ccc(NC(=O)c2ccc(NC(=O)CN3CCN(c4ccc(O)cc4)CC3)cc2)cc1	2.2	i	-5.0	x	x	x	x
CC(C)c1ccc(NC(=O)C2CCC(CNC(=O)[C@@H]3Cc4ccccc4CN3)CC2)cc1 (stereo partly specified)	-5.0	i	7.2	0.7	0.7	x	7.3

By substructure, the compounds so far with a cyano group.
mol	MLL AF4-AF9 inh	FGF22 binding	HNF4A DNA FP	UCH37 inh	Ecoli growth	Vif TR-FRET	RanGTP-Impb inh
CC(OC(=O)CCC(=O)c1ccc(Cl)s1)C(=O)NC1(C#N)CCCCC1 (stereo unspecified)	1.8	i	0.9	2.1	0.69	12%	x
COc1ccc(/C=C(\C#N)C(=O)OCC(=O)NC(C)c2ccccc2)cc1 (stereo unspecified)	0.5	i	-1.4	-25	0.72	7%	-0.3

Remaining list, next part
mol	MLL AF4-AF9 inh	FGF22 binding	HNF4A DNA FP	UCH37 inh	Ecoli growth	Vif TR-FRET	RanGTP-Impb inh
Cc1ncc(CN2CCCC(CCC(=O)NCc3ccccc3F)C2)s1 (stereo unspecified)	-1.2	i	2.2	3.2	0.66	-1%	-5.1
CC(=O)c1oc2ccccc2c1N	x	x	-2.9	2.4	0.72	5%	-5.5
O=c1[nH]c2ccc(NC(=S)Nc3ccccc3Cl)cc2[nH]1	x	x	-1.2	1.9	0.71	11%	1.9
CC(C)NC1CS(=O)(=O)CC1O (stereo unspecified)	-8.3	i	2.3	1.6	0.67	-1%	-0.8
CCOc1ccc(CN2C(=O)c3ccccc3C2C(=O)NC(C)CC)cc1OC (stereo unspecified)	-5.7	i	2.0	1.8	0.65	1%	-1.3
CC(C)(Oc1ccc(Cl)cc1)C(=O)O	7.8	i	4.6	1.8	0.68	x	-3.8
Cc1ccc2nc(-c3ccc(F)cc3)c(CC3CCCCC3)n2c1	3.6	i	-1.6	x	x	x	x
Cc1ccc2oc(=O)c(-c3ccc(O)cc3)c(C)c2c1	0.3	i	3.1	-13	0.68	11%	x
Cc1ccc(-c2cc(N)n(-c3ccc(C)cc3)n2)cc1	x	x	4.9	0.6	0.72	-11%	0.0
Cn1cc(CC(=O)NC2CCCCC2)c2ccccc21	2.6	i	2.7	1.5	0.7	0%	-1.6
Cc1ccc(C)c(NC(=O)C[n+]2ccccc2)c1	-5.1	i	-2.4	2.7	0.6	3%	0.9
CCOC(=O)CCc1nc2ccccc2[nH]1	5.1	i	-3.0	-1.1	0.71	-3%	6.2
CCCCn1nnnc1C(c1cc2ccccc2o1)N(C)Cc1ccccc1 (stereo unspecified)	-4.6	i	-4.8	x	x	x	x
CNC(=O)COc1coc(CN2CCN(C(=O)c3ccco3)CC2)cc1=O	-1.3	i	1.7	-0.2	0.69	x	-0.5
Cc1ccc(C)c(N2CCN(CC(=O)Nc3ccc([N+](=O)[O-])cc3C(=O)Nc3ccccc3F)CC2)c1	x	x	-0.9	4.2	0.67	-1%	7.1
COc1cc(-c2cc(-c3ccccc3)nc(SCC(=O)O)c2C#N)cc(OC)c1OC	-0.8	i	4.5	-8.0	0.64	0%	-2.6
CCCNC(=O)c1ccc(N2CC3CC(C2)c2cccc(=O)n2C3)c(NC(=O)Nc2ccc(CC)cc2)c1 (stereo unspecified)	2.5	i	0.8	-1.3	0.7	0%	2.1
CCOC(=O)C(C(=O)OCC)C(CC(=O)C1CC1)c1ccccc1 (stereo unspecified)	x	x	0.7	1.9	0.77	68%	-0.6
Cc1ccccc1C(=O)NNC(=O)CSc1nnc(C)n1-c1ccccc1	-3.4	i	0.9	3.1	0.7	x	-0.3
C=CCc1cc(OC)ccc1OCCN(C)Cc1ccccc1	13	i	-0.2	3.7	0.68	x	1.2
Cc1cccc(NC(=O)c2cccc(NC(=O)c3ccco3)c2)c1C	0.8	i	0.9	3.8	0.69	x	1.3
Cc1c(NC(=O)CSCc2c(F)cccc2Cl)c(=O)n(-c2ccccc2)n1C	x	x	x	0.5	0.69	x	4.3
O=C(N=C1SC2CS(=O)(=O)CC2N1Cc1ccc(Cl)cc1)C1CCCO1 (stereo unspecified)	-13	x	-2.6	5.2	0.69	x	-1.1
Nc1nccnc1C(=O)OCC(=O)Nc1cccc(S(=O)(=O)N2CCCCC2)c1	x	x	-2.9	i	0.65	x	-1.1
CC(/C=C/c1ccccc1)=N/NC(=O)c1nc2nc(C)cc(C)n2n1	-7.2	i	5.1	x	x	-6%	4.9
Cc1ccc(NC2CCCN(C(=O)c3cn4cc(Cl)ccc4n3)C2)cc1C (stereo unspecified)	6.4	i	1.6	1.5	0.71	x	-5.1
O=C(COC(=O)Cc1ccccc1[N+](=O)[O-])NCc1ccc(F)cc1	-1.0	i	-2.9	3.5	0.7	19%	2.9
